# StopGo reporter: FMDV 2A StopGo reporter, luciferase signal | Potency, µM (series often up to 57.9 µM), inactives show top-dose signal change, negative = less light | hit rate 1.2% among 410,000 | human cells with a luciferase reporter of 2A StopGo recoding; control for the full effect not named in the record | AID 1159524; active = well fitted falling curve with a large enough effect; inconclusive = small, poorly fitted or top-dose-only effect; inactive = no such curve, though single readings can be large or run the other way; tested in HEK293T cells; further: on the % scale 0 is the no-effect control and ±100 the full control effect; nearly all actives have a fitted effect of over 45% in size; luciferase light after 4 h
# Cruzain noTriton: inhibitors of Trypanosoma cruzi cruzain without detergent; P25779; purified cruzain, Z-FR-AMC fluorescence, no detergent; Potency, µM, for the others: max response, negative = inhibition, usual class: inhibitors; AID 1476; hit rate 2.3% among 200,000;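 further: plate controls were enzyme without inhibitor for no effect and buffer without enzyme for full effect; nearly all actives have a fitted effect of over 40% in size; top concentration of the series not given in the record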
# Target sequence (P25779 123-467 limits assumed): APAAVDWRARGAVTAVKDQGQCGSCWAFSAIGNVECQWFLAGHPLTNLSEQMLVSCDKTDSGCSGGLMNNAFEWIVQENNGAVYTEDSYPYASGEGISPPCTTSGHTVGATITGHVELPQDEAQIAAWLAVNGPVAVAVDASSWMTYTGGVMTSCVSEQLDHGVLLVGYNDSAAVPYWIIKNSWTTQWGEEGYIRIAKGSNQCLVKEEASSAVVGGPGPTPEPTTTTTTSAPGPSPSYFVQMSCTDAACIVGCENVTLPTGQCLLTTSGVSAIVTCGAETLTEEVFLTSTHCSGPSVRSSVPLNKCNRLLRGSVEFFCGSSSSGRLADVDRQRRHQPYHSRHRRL
#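 Purified cruzain at 1.5 nM, pre-incubated 15 min with compound at room temperature in 100 mM sodium acetate pH 5.5, 5 mM DTT, 0.00005% Triton X-100. Reaction started with 2 uM Z-FR-AMC; AMC fluorescence increase over 60 s gives rate.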
# SARS PLP yeast: SARS-CoV PLP inhibition in yeast. Potency, µM (series often up to 32.9 µM), without a hit: at the top dose activity, positive = growth rescue. S. cerevisiae expressing SARS-CoV PLpro, growth rescue; control for the full effect not named in the record. hit rate 0.19% among 330,000. AID 485353; active means well fitted rising curve with a large enough effect; inconclusive means small, poorly fitted or top-dose-only effect; inactive means no such curve, though single readings can be large or run the other way; further: 0% is about no effect; nearly all actives have a fitted effect of over 55% in size; growth read by luminescence after 48 h
# RE007 growth inh: less growth of the S. pombe RE007 Vpr strain | S. pombe RE007 Vpr strain, BacTiter-Glo ATP luminescence, 24 h; control for the full effect not named in the record | Potency, µM (highest dose often 92.2 µM), without a hit: top-dose activity change, negative = less growth | hit rate 0.21% among 360,000; active = well fitted falling curve with a large enough effect; inconclusive = small, poorly fitted or top-dose-only effect; inactive = no such curve, though single readings can be large or run the other way;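 further: on the % scale 0 is the no-effect control and ±100 the full control effect; nearly all actives have a fitted effect of over 50% in size; the assay follows cell death caused by Vpr and the record does not say whether a fall means rescue or toxicity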
#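 Fission yeast RE007 carrying one integrated HIV-1 vpr copy, seeded at OD 0.01 in PMG+AL medium with 23 nL pinned compound. Grown 24 h at 30 degrees; viability read by BacTiter-Glo luminescence after 5 min.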
# MARV entry inh: blocks Marburg virus binding to or entry into cells. Marburg virus pseudotyped entry inhibition, cell reporter; control for the full effect not named in the record; about a third of the inactives were read at about 46 µM. Potency, µM (top dose mostly 37.8 µM), for inactives: at the highest dose activity change, negative = inhibition, usual class: inhibitors. hit rate 1.8% among 300,000; active = well fitted inhibition curve with a large enough effect; inconclusive = small, poorly fitted or top-dose-only effect, or effect the other way; inactive = flat fitted curve, though single readings scatter; tested in HEK293 cells; about a fifth of its hits are not listed in these tables; further: on the % scale 0 is the no-effect control and ±100 the full control effect; luciferase read-out
# Cruzain Triton: blocks cruzain activity in presence of Triton detergent; hit rate 0.43% among 200,000; AID 1478; Potency, µM, for inactives: max response, negative = inhibition, actives largely listed as inhibitors; P25779; purified cruzain, Z-FR-AMC fluorescence, 0.01% Triton;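 further: plate controls were neutral wells for no effect and buffer without enzyme for full effect; nearly all actives have a fitted effect of over 40% in size; top concentration of the series not given in the record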
#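 Read-out: AMC fluorescence (360 nm excitation, 450 nm emission), four reads over 2 min, first-to-third difference used. Conditions: cruzain 1.5 nM, Z-FR-AMC 2 uM, pH 5.5 acetate, 5 mM DTT, 0.01% Triton X-100.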
# NS1 function inh: inhibitors of influenza NS1 protein function | S. cerevisiae slowed by influenza A NS1, growth recovery by OD600 | Potency, µM (highest dose often 46.1 µM), for the others: at the top dose activity, positive = more growth | hit rate 0.4% among 270,000 | AID 2326; active means well fitted rising curve with a large enough effect; inconclusive means small, poorly fitted or top-dose-only effect; inactive means no such curve, though single readings can be large or run the other way; further: nearly all actives have a fitted effect of over 50% in size
#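 Read-out: OD600 growth recovery of NS1-expressing budding yeast. Cells grown overnight at 30C in -URA glucose medium, washed, resuspended and diluted 1:100 in 2% galactose assay medium, pH 6.0. Same strain lacking NS1 served as positive control.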
# Lassa entry inh: Lassa virus entry inhibition | Lassa virus pseudotype entry inhibition, cell reporter; control for the full effect not named in the record | Potency, µM (doses to about 37.9 µM), for the others: at the highest dose activity change, negative = inhibition, hits mostly inhibitors | hit rate 1.2% among 300,000 | AID 540256; active means well fitted inhibition curve with a large enough effect; inconclusive means small, poorly fitted or top-dose-only effect, or effect the other way; inactive means flat fitted curve, though single readings scatter; tested in HEK293 cells; further: on the % scale 0 is the no-effect control and ±100 the full control effect; nearly all actives have a fitted effect of over 50% in size; luciferase read-out
# * hit, by the source's call; ? = inconclusive; . = not tested or not shown; [ ] = dose if it differs, or a comment. Unless noted, the call rests on the fitted dose curve; in most records, active means well fitted curve in the direction sought with a large enough effect; inconclusive means small, poorly fitted or top-dose-only effect, or another doubt; inactive means no such curve, though single readings can be large; an effect the other way counts as inactive or inconclusive. Potency means the concentration at half of the fitted maximal effect.
entry	compound	RE007 growth inh	StopGo reporter	MARV entry inh	Cruzain noTriton	NS1 function inh	Cruzain Triton	Lassa entry inh	SARS PLP yeast
1	Oc1ccc(-c2[nH]nc(-c3ccccc3)c2-c2nc3ccccc3[nH]2)cc1	27%	-23%	3%	13%	2%	-4.7%	-1%	0%
2	COc1ccc(-c2c(C)n([O-])c3c([n+]2=O)CCCCC3)cc1OC	-6%	-22%	?	.	4%	.	3%	0%
3	O=C(Nc1ccc(F)cc1F)c1cc2ncc(CCCl)cn2n1	-3%	-14%	2%	0%	-9%	-1.9%	7%	6%
4	CCc1ccc(-c2cn3c(n2)sc2cc(C(=O)NCCCc4ccccc4)ccc23)cc1	.	26%	.	-5%	.	-1.7%	?	.
5	Cc1ccc(S(=O)(=O)N(CC(O)CN2CCOCC2)c2cccc([N+](=O)[O-])c2)cc1 (stereo unspecified)	-12%	14%	?	.	-4%	.	2%[46.1 µM]	-1%
6	COc1cccc(NC(=O)CSc2nc3ncc(Br)cc3[nH]2)c1	4%	-13%	.	.	6%	.	.	-3%
7	Cc1ccccc1-n1nc(C)c2cc(C(=O)N3CCN(S(=O)(=O)c4ccc(Cl)cc4)CC3)sc21	19%	-28%	?	?	-13%	2.9%	-28%	-12%
8	CCOc1ccc(S(=O)(=O)N(CC)CC(=O)NCc2ccco2)cc1C	-5%	15%	12%[46.1 µM]	.	-12%	.	.	-8%
9	O=C(Cn1c(=O)nc(-c2ccccc2)c2ccccc21)Nc1ccc(Cl)c(C(F)(F)F)c1	.	-9%	.	2%	.	-0.9%	11%[46.1 µM]	.
10	COc1ccccc1C(=O)NCCOc1ccc(C(C)(C)C)cc1	-1%	-19%	.	.	-54%	.	.	-3%
11	CCOC(=O)C1=C(C)SC2=NS(=O)(=O)CCN21	5%	.	21%	7%	7%	-0.5%	1%	4%
12	Brc1ccc(CN2CCCCCC2)cc1	1%	-6%	-24%	.	.	.	?	.
13	COCC(C)n1c(C)cc(C(=O)CSc2nnnn2-c2ccc(O)cc2)c1C (stereo unspecified)	-8%	8%	?	.	.	.	?	-1%
14	O=C(COC(=O)CCC(=O)c1ccc(F)cc1)NC1CCCCC1	5%	-4%	-20%[46.1 µM]	.	.	.	30%[46.1 µM]	9%
15	O=C(Nc1ccc(F)cc1)C1CCC(N2C(=O)c3ccccc3C2=O)CC1 (stereo unspecified)	-9%	.	-26%	?	5%	-0.6%	0%	5%
16	c1ccc(-c2cccc(-c3ccccn3)n2)nc1	?	10%	2.1µM*	18%	-284%	3.7%	2.1µM*	-37%
17	N#Cc1c(F)cccc1NCc1cccs1	-10%	16%	.	.	-3%	.	.	0%
18	C/C(CC(=O)Nc1cc(C)ccn1)=N\NC(=O)c1cccc(F)c1	-12%	29%	?	.	3%	.	0%[46.1 µM]	0%
19	Cc1ccc(C)c(NC(=O)COC(=O)c2nn(C)c(=O)c3ccccc23)c1	4%	-18%	11%	.	.	.	0%	-3%
20	CCc1noc(C)c1C(=O)NNC(=O)c1nn(CC)c(=O)c2ccccc12	-11%	-6%	-2%	.	.	.	6%	1%
21	CCOC(=O)C1CCN(Cc2nnc(-c3ccccc3C)o2)CC1	-3%	-12%	14%[46.1 µM]	.	-4%	.	-6%[46.1 µM]	-2%
22	CCNS(=O)(=O)c1ccc(NC(=S)NCc2ccco2)cc1	6%	28%	-5%	-17%	3%	-7.1%	-2%	-1%
23	COCC(C)OC(=O)c1c(N)n(CCCN2CCOCC2)c2nc3ccccc3nc12 (stereo unspecified)	-6%	-19%	?	.	2%	.	-25%[46.1 µM]	0%
24	CC(C)(C)c1ccc(OC(=O)Cn2c(C(F)(F)F)nc3ccccc32)cc1	15%	-25%	?	11%	?	-7.8%	1%	22%
25	COc1ccc(C(=O)Nc2c(O)ccc3ccccc23)cc1OC	-9%	12%	-5%	.	.	.	-5%	.
26	O=C(C1CCCN(c2nnc(-n3cccc3)s2)C1)N1CCN(c2ccccc2)CC1 (stereo unspecified)	14%	?	1%	25%	-72%	-6.8%	.	-8%
27	O=c1cc(N2CCc3ccccc3C2)[nH]c(=O)n1-c1ccc(Br)cc1	6%	-10%	-1%	?	3%	9.3%	-3%	0%
28	COc1cc2c(cc1OC)-c1cc(Nc3ccccc3C)nc(=O)n1CC2	4%	-8%	-2%[46.1 µM]	.	1%	.	?	0%
29	CCCOc1ccc(CC(=O)N/N=C\c2ccc(F)cc2)cc1	-14%	-17%	-3%	.	-1%	.	-2%	0%
30	CC(CN1CCOCC1)OC(=O)c1ccc(Cl)cc1Cl (stereo unspecified)	-2%	51%[activator]	.	.	-19%	.	.	5%
31	OCC1(c2cc(C(F)(F)F)n[nH]2)CCCCC1	16%	-14%	6%	-10%	3%	3.9%	0%	-9%
32	O=C(CN1C2=NCCCN2c2ccccc21)c1cccc(Br)c1	-14%	-30%	?	4%	16%	1.3%	?	-5%

# Compound profiles (already shown). Values in the order: RE007 growth inh	StopGo reporter	MARV entry inh	Cruzain noTriton	NS1 function inh	Cruzain Triton	Lassa entry inh	SARS PLP yeast
# `O=C(COC(=O)CCC(=O)c1ccc(F)cc1)NC1CCCCC1` is entered as 5%	-4%	-20%[46.1 µM]	.	.	.	30%[46.1 µM]	9%
# `c1ccc(-c2cccc(-c3ccccn3)n2)nc1` is entered as ?	10%	2.1µM*	18%	-284%	3.7%	2.1µM*	-37%

# Next part:
entry	compound	RE007 growth inh	StopGo reporter	MARV entry inh	Cruzain noTriton	NS1 function inh	Cruzain Triton	Lassa entry inh	SARS PLP yeast
33	CCc1ccc(NC(=O)N(CCN2CCOCC2)Cc2ccc3c(c2)CCCN3CC)cc1	-22%	-16%	?	-7%	-8%	-4.1%	-28%	?
34	CCOC(=O)CNC(=O)Cn1cnc2c(nnn2-c2ccccc2)c1=O	-12%	-6%	.	.	12%	.	.	2%
35	CCOc1ccc2[nH]c(SCC(=O)OC)c([N+](=O)[O-])c2c1	-9%	-13%	.	.	3%	.	?	0%
36	CCCN1CCN(C(c2cc3cc4c(cc3[nH]c2=O)OCO4)c2nnnn2C(C)(C)C)CC1 (stereo unspecified)	6%	-3%	-17%	3%	2%	-4.2%	15%	0%
37	Nn1c(SCC(=O)Nc2ccccc2)nnc1-c1cccnc1	-3%	15%	?	-17%	-2%	-0.5%	1%	6%
38	O=C(Cn1c(=O)oc2ccccc21)Nc1ccc(Br)cc1	22%	2%	-1%[46.1 µM]	.	-6%	.	?	-2%
39	O=C(COc1ccc(Br)cc1)N1CCc2ccccc21	7%	71%[activator]	?	.	-4%	.	?	0%
40	CCc1cc(C(=O)NCC(C)(C)N2CCOCC2)sc1C	2%	1%	-1%	.	.	.	?	-1%
41	CC(=C/c1ccccc1)/C=N/Nc1nc(N2CCOCC2)nc(N2CCOCC2)n1	-19%	-17%	-3%	18%	-18%	-7.0%	22%	-18%
42	CCN1CCN(C(c2ccccc2F)c2nnnn2Cc2ccc3c(c2)OCO3)CC1 (stereo unspecified)	-4%	-5%	?	-1%	-1%	4.6%	6%	3%
43	Cc1ccc(C(O)(c2ccccc2)c2ccccc2C(C)N(C)C)c(C)c1 (stereo unspecified)	18%	.	5.8µM*	-1%	-41%	-3.1%	8.2µM*	6%
44	OCCN1CCN(CC(O)COCC2COc3ccccc3O2)CC1 (stereo unspecified)	12%	-14%	?	.	.	.	22%[46.1 µM]	2%
45	CCCCc1ccc(NC(=O)CSc2nc(=O)n(CCN(CC)CC)c3c2CCCC3)cc1	5%	-16%	?	.	.	.	?	-4%
46	COC(=O)Cc1[nH]n(-c2nc3ccccc3s2)c(=O)c1C(C)=Nc1ccc(C)cc1	?	0.35µM*	?	.	2%	.	?	-1%
47	Cc1cc(C)nc(N2CCN(CC(=O)NCc3ccccc3)CC2)n1	6%	0%	2%	3%	-12%	-3.1%	-16%	-6%
48	FC(F)Sc1nc(-c2ccccc2)c(-c2ccccc2)n1C(F)F	30%	-28%	-4%	-2%	-7%	-11%	0%	-5%
49	COc1ccc(Nc2c3c(nc4ccc(NC(=O)c5cc(Cl)ccc5OC)cc24)CCCC3)cc1OC	.	32µM*	?	?	.	?	?	.
50	Cc1ccc(C)c(NCc2n[nH]c(=S)n2-c2ccccc2)c1	-18%	-22%	-3%[46.1 µM]	.	0%	.	-1%[46.1 µM]	-1%
51	CC(C)NCC(O)COCc1ccc(Cl)cc1 (stereo unspecified)	1%	-7%	-1%	5%	?	3.6%	13%	-6%
52	Cc1ccc(-n2c(O)c(C=NC3CCCC3)c(=O)[nH]c2=O)c(C)c1	8%	-6%	2%	-2%	-6%	-3.0%	-3%	-2%
53	COc1cccc(NC(=O)C(C)n2c(=O)cc(C(F)(F)F)c3c(C)nn(C)c32)c1 (stereo unspecified)	.	-28%	.	?	.	-1.5%	3%[46.1 µM]	.
54	COc1ccc(CC(=O)Nc2cccc(C(=O)NN3C(=O)c4ccccc4C3=O)c2C)cc1	5%	-11%	?	2%	-10%	1.5%	-11%	25%
55	CCO[C@@H]1OC(C(=O)NCc2nc3ccccc3[nH]2)=C[C@H](C2CCCCC2)[C@H]1CCCO	2%	?	.	.	-8%	.	.	0%
56	CCCOc1cccc(OCCSc2nc(C)cc(=O)[nH]2)c1	-6%	24%	-20%	-6%	-2%	-3.3%	?	1%

# 3 records picked at random from the list so far, as already listed:
entry	compound	RE007 growth inh	StopGo reporter	MARV entry inh	Cruzain noTriton	NS1 function inh	Cruzain Triton	Lassa entry inh	SARS PLP yeast
53	COc1cccc(NC(=O)C(C)n2c(=O)cc(C(F)(F)F)c3c(C)nn(C)c32)c1 (stereo unspecified)	.	-28%	.	?	.	-1.5%	3%[46.1 µM]	.
55	CCO[C@@H]1OC(C(=O)NCc2nc3ccccc3[nH]2)=C[C@H](C2CCCCC2)[C@H]1CCCO	2%	?	.	.	-8%	.	.	0%
49	COc1ccc(Nc2c3c(nc4ccc(NC(=O)c5cc(Cl)ccc5OC)cc24)CCCC3)cc1OC	.	32µM*	?	?	.	?	?	.
